# gsp antag: antagonizes gsp, the McCune-Albright syndrome mutation; gsp-mutant cells, cAMP HTRF, 30 min; control for the full effect not named in the record; Potency, µM (top dose mostly 76.9 µM), for the others: top-dose activity change, negative = inhibition, actives largely listed as inhibitors; 340,000 compounds, 0.4% hits; active = falling curve of any shape with a large fitted effect; inconclusive = falling curve, mostly with a smaller effect; inactive = flat or rising curve; cell line not stated here;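 note: intracellular cAMP measured with PDE inhibitor Ro 20-1724 present during compound exposure; potency is the fitted concentration of half-maximal effect; % is set by controls: 0 for no effect and ±100 for the full control effect; nearly all actives have a fitted effect of over 65% in size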
#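 HTRF cAMP read-out (cAMP-d2 plus anti-cAMP antibody-K in lysis buffer, 30 min RT). Before lysis, cells are exposed to compounds with […] for 30 min at 37C in DPBS containing Ca/Mg, BSA and Tween 20.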
# D2 potentiator: positive allosteric modulators of human D2 dopamine receptor. DiscoveRx D2 beta-arrestin cells, luminescence, 90 min; 100% = 57 uM dopamine signal. 360,000 compounds, 0.23% hits. potentiation, % (test concentration not listed). P14416. AID 624464; active = potentiation of 50% or more; inconclusive = 30% to 50%; inactive = 30% or less;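 note: compound concentration not given in the record; tested on top of an EC20 dose of dopamine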
#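 D2 cells co-treated with compound plus 50 nM dopamine (EC20) for 90 min at 37 deg C to detect potentiation. Beta-arrestin recruitment was read as enzyme-fragment luminescence after 1 h at ambient temperature. Full response was set by 57 uM dopamine.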
# CtBP-E1A blk: blocks the CtBP interaction with E1A; 340,000 compounds, 0.49% hits; AlphaScreen GST-E1A/His-CtBP binding, 1536-well; active compounds read low; control for the full effect not named in the record; AID 651724; activity change, % (concentration not given with the values); in the data active means activity change below about -65%; inconclusive means about -30% to -65%; inactive means above about -30%; note: % is set by controls: 0 for no effect and ±100 for the full control effect
#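 Steps: dispense buffer (Tris pH 8.0, NaCl 300 mM, TCEP 1 mM, BSA, Tween 20); add 5X protein mix (GST-E1A, His-CtBP, 125 nM each); pin 23 nL compound; 2 h at 37 °C, dark; add 5X beads (50 ug/mL); 1 h; read.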
# gsp ag: agonists of gsp mutant (McCune-Albright syndrome); Potency, µM (top dose mostly 76.9 µM), for inactives: at the highest dose activation (cAMP increase), hits mostly activators; AID 624287; 340,000 compounds, 0.13% hits; gsp mutant cells, cAMP HTRF, 30 min; control for the full effect not named in the record; active = well fitted activation curve with a large enough effect; inconclusive = small, poorly fitted or top-dose-only effect, or another doubt; inactive = no such curve, though single readings can be large or run the other way; cell line not stated here;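 note: phosphodiesterase inhibitor Ro 20-1724 added with compounds to block cAMP breakdown; potency is the fitted concentration of half-maximal effect; nearly all actives have a fitted effect of over 60% in size; about a fifth of the inactives were tested at one dose only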
#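 Cells stably selected in G418 were plated at 2000/well, grown 16-24 hr, then given compounds in DMSO with the PDE inhibitor […] (300 uM solution added) for 30 min at 37C; cAMP was read by HTRF.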
# D2 ag: human D2 receptor agonism in beta-arrestin assay; AID 624465; DiscoveRx PathHunter D2 beta-arrestin, luminescence, 90 min; 100% = 57 uM dopamine signal; P14416; 360,000 compounds, 0.084% hits; activation, % (no concentration beside the values); in the data active = activation above about 40%; inconclusive = about 15% to 40%; inactive = below about 15%; note: compound concentration not given in the record; the text of the record calls up to 30% inactive
#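 DiscoveRx PathHunter D2 beta-arrestin cells (2,100/well) attached overnight, then compound-stimulated 90 min at 37 C in HBSS/10 mM HEPES/0.1% Tween-20 buffer; beta-galactosidase complementation read by luminescence after 1 h at ambient temperature. Dopamine 57 uM final (EC100) as control.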
# Six1-Eya2 blk: Six1/Eya2 interaction inhibition | Q15475+O00167 | AlphaScreen GST-Six1/His-Eya2 binding, biochemical; active compounds read low; control for the full effect not named in the record | activity change, % (concentration not given with the values) | 360,000 compounds, 0.56% hits | AID 651725; in the data active = activity change below about -65%; inconclusive = about -30% to -65%; inactive = above about -30%; note: % is set by controls: 0 for no effect and ±100 for the full control effect
# Target sequence (O00167 whole entry, looked up): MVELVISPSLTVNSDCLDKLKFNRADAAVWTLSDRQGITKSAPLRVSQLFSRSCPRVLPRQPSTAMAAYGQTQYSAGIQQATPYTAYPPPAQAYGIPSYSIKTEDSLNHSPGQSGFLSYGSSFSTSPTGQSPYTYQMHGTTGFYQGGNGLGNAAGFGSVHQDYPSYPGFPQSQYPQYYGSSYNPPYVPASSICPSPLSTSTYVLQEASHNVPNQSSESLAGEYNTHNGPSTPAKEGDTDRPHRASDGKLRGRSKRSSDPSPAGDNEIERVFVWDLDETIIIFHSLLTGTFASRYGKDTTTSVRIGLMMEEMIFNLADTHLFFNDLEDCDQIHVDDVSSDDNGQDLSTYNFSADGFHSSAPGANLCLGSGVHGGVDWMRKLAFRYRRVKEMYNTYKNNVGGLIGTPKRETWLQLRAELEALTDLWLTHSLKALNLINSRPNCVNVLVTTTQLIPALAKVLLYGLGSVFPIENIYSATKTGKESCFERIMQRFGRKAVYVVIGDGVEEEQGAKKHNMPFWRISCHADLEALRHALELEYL
# Target sequence (Q15475 whole entry, looked up): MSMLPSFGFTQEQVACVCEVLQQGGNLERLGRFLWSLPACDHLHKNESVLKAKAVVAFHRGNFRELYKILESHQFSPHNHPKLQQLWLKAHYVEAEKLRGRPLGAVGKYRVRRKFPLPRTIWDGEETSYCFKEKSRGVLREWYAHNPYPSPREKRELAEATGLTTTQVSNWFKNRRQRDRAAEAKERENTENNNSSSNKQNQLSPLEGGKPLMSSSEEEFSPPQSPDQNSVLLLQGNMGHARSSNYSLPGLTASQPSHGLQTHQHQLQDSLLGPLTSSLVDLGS
#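 Six1/Eya2 binding was read as AlphaScreen signal after compounds were pinned into GST-Six1 plus His-tagged Eya2 (5X stock 250/500 nM) in pH 8.0 Tris/NaCl/TCEP buffer, beads added, then incubated 1 h, 37 C, dark.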
# The depositor's hits bear a star; ? = inconclusive; nt = not tested or not shown; [ ] = another dose, or the depositor's remark. Hits appear at their usual frequency; about 1.4% have a hit in one of these screens.
# Each structure is followed by: gsp antag, D2 potentiator, CtBP-E1A blk, gsp ag, D2 ag, Six1-Eya2 blk
Nc1c(C(=O)NCCc2ccccc2)nnn1Cc1ccc(Cl)cc1
    23%, 8, 3, -13%, 0.7, 2
CC(=O)N1c2ccc(F)c(F)c2C[C@H]1C
    8%, -7, -9, 19%, -1.0, 6
C(/C=C/c1ccccn1)=C\c1ccccc1
    -6%, -7, 20, -10%, -3.2, 21
CCNC(=O)CCc1nc(-c2ccc(C(C)(C)C)cc2)no1
    -13%, -1, 3, -8%, -4.3, 0
O=C(COC(=O)c1ccc(Br)o1)NCc1ccc(F)cc1
    12%, -3, -1, -1%, -2.0, 3
CC(C)[C@@H](C(=O)NC1CCCC1)N1C(=O)N2CCc3c([nH]c4ccccc34)[C@@]2(C)C1=O
    -21%, -32, -6, nt, -2.8, -10
N#CCCN(Cc1cccs1)C(=O)Nc1ccc(F)cc1
    8%, -20, nt, -1%, -4.6, 5
COc1ccc(C(=O)CN2C(=O)c3ccccc3S2(=O)=O)cc1
    4%, -6, 10, ?, -3.1, 0
COCC(=O)n1nc(-c2ccccc2)nc1NCc1cccs1
    -2%, -3, 8, 20%[15.4 µM], -2.7, 4
NC(Cc1ccccc1)c1csc(Nc2ccc(C(=O)NCCCO)cn2)n1 (centres undefined)
    nt, -16, -82*, nt, -4.0, -66*
Cc1cc(=O)[nH]c(N/N=C/C2=C(N3CCOCC3)C(=C\c3ccc(Cl)cc3)/CC2)n1
    ?, -15, -27, 0%, -2.7, -28
Cc1ccccc1-c1nnn(Cc2ccc(-c3nn[nH]n3)cc2)n1
    nt, -5, 0, 30%[15.4 µM], -0.4, -28
COc1ccc(Cl)cc1NS(=O)(=O)N1CCOCC1
    2%, -5, 2, -14%, 4.4, 14
CN(CC(=O)Nc1ccccc1Cl)C(=O)CSc1nnc(-c2ccco2)o1
    0%, 1, -2, 13%[15.4 µM], -3.9, 7
Cc1ccccc1NC(=O)CCC(=O)N/N=C/c1ccc(F)cc1
    2%, -12, 12, -27%, -0.4, -1
COc1ccc(N2C(=O)C(CC(=O)Nc3ccc(Cl)cc3)N(NC(=O)c3cccc(F)c3)C2=S)cc1 (centres undefined)
    -28%, -23, -2, 21%, -4.1, -1
CC1CCN(c2ccc(-c3ccc(NC(=O)c4ccco4)cc3)nn2)CC1
    -4%, 4, -11, 29%, -1.7, -2
COc1ccc(-c2cc(C(=O)N3CCOCC3)no2)cc1OC
    -2%, -16, -3, 14%, -2.4, -1
C/C=C/c1ccc(OCCCNC(C)CC)c(OC)c1 (centres undefined)
    11%, 1, 0, ?, -1.5, 1
Cc1ccc(C(=O)OCC(=O)NCc2cccc(Cl)c2)cc1S(=O)(=O)N1CCCCC1
    -14%, -8, 9, -9%, -2.0, 0
COc1ccc(/C=C/C(=O)NNc2c(F)c(F)cc(F)c2F)cc1OC
    -11%, 4, 0, 15%, -1.0, 3
COc1ccc(S(=O)(=O)N2CCCCC2)cc1NC(=O)c1ccc(Cl)nc1
    -19%, 1, -1, -4%, 2.6, -2
COC(=O)c1sc(NC(=O)c2cnccn2)c(C(=O)OC)c1C
    1%, -10, -3, 7%, 0.6, 3
CCc1nc(SCC(=O)NNC(=O)c2ccc(C)cc2)c2ccccc2n1
    nt, -35, -24, 16%[15.4 µM], 2.2, -4
Cc1ccc(O)c(CNc2cccc(C)n2)c1
    -7%, -4, -4, 12%[15.4 µM], -2.4, -27
COCCN1C(=O)C(=O)/C(=C(/O)c2cccc(OC)c2)C1c1ccco1 (centres undefined)
    -5%, -13, -2, 16%, -0.8, -1
CCOC(=O)c1nn(-c2ccc(C)cc2)c(=O)cc1OCC(=O)Nc1cccc(C)c1
    -5%, -21, 2, -43%[inhibitor], 2.7, -17
O=C(Nc1cccc(C(=O)N2CCCCC2)c1)C1CC1
    6%, -2, 7, nt, 0.1, 3
NC(=S)N/N=C/c1ccc2cccc(OCc3ccccc3)c2n1
    14%, -3, -23, -4%, 1.5, -6
Cc1cc(CNC(=O)c2cccc3c2C(=O)c2ccc(-c4ccc(F)cc4OCc4ccccc4)cc2S3(=O)=O)c(C(F)(F)F)o1
    -10%, -10, -8, 5%, -1.8, -21
CC12CC(c3ccccc3O1)N(C(=O)c1ccc(Br)o1)C(=O)N2c1ccccc1 (centres undefined)
    -6%, 8, 5, -28%, -0.4, 0
O=[N+]([O-])c1ccccc1C=NN1CCCCCC1
    -9%, -20, ?, -13%[15.4 µM], -2.9, -70*
C/C(=N/NC(=O)c1nnn(-c2nonc2N)c1-c1ccccc1)c1ccncc1
    6%, -4, -16, 1%, 1.8, 2
Cc1ccc(C)c(NC(=S)N(C2CCCCC2)C(C)c2cccnc2)c1 (centres undefined)
    7%, 1, -3, 5%[15.4 µM], -1.5, 2
CN(C)c1ccc(-c2csc(C(O)c3ccccc3)n2)cc1 (centres undefined)
    nt, -3, ?, nt, 3.2, -29
CC(C)CC(=O)Nc1nnc(S(=O)(=O)N2c3ccccc3CC2C)s1 (centres undefined)
    7%, -2, 6, -2%, 3.1, 1
COc1ccc(CCNC(=O)C2CCC(=O)N2S(=O)(=O)c2ccc(C)cc2)cc1 (centres undefined)
    4%, -2, 6, -24%, -2.9, -6
CCOC(=O)c1c(NC(=O)COC(=O)c2cnccn2)sc(C)c1C
    -5%, 1, 1, 5%[15.4 µM], -0.6, 3
COc1ccc(N2CCN(C(=O)CSc3nnc(-c4cccnc4)n3-c3ccc(F)cc3)CC2)cc1
    -7%, -9, 6, -5%, -0.9, 0
CCc1ccccc1NC(=O)CC(=O)Nc1ccccc1CC
    8%, -5, 4, 2%[15.4 µM], -0.5, 8

# Quoted from the results shown, 15 compounds:
# Each structure is followed by: gsp antag, D2 potentiator, CtBP-E1A blk, gsp ag, D2 ag, Six1-Eya2 blk
COC(=O)c1sc(NC(=O)c2cnccn2)c(C(=O)OC)c1C
    1%, -10, -3, 7%, 0.6, 3
CCc1nc(SCC(=O)NNC(=O)c2ccc(C)cc2)c2ccccc2n1
    nt, -35, -24, 16%[15.4 µM], 2.2, -4
Cc1ccc(O)c(CNc2cccc(C)n2)c1
    -7%, -4, -4, 12%[15.4 µM], -2.4, -27
COCCN1C(=O)C(=O)/C(=C(/O)c2cccc(OC)c2)C1c1ccco1 (centres undefined)
    -5%, -13, -2, 16%, -0.8, -1
CCOC(=O)c1nn(-c2ccc(C)cc2)c(=O)cc1OCC(=O)Nc1cccc(C)c1
    -5%, -21, 2, -43%[inhibitor], 2.7, -17
O=C(Nc1cccc(C(=O)N2CCCCC2)c1)C1CC1
    6%, -2, 7, nt, 0.1, 3
NC(=S)N/N=C/c1ccc2cccc(OCc3ccccc3)c2n1
    14%, -3, -23, -4%, 1.5, -6
Cc1cc(CNC(=O)c2cccc3c2C(=O)c2ccc(-c4ccc(F)cc4OCc4ccccc4)cc2S3(=O)=O)c(C(F)(F)F)o1
    -10%, -10, -8, 5%, -1.8, -21
CC12CC(c3ccccc3O1)N(C(=O)c1ccc(Br)o1)C(=O)N2c1ccccc1 (centres undefined)
    -6%, 8, 5, -28%, -0.4, 0
O=[N+]([O-])c1ccccc1C=NN1CCCCCC1
    -9%, -20, ?, -13%[15.4 µM], -2.9, -70*
C/C(=N/NC(=O)c1nnn(-c2nonc2N)c1-c1ccccc1)c1ccncc1
    6%, -4, -16, 1%, 1.8, 2
Cc1ccc(C)c(NC(=S)N(C2CCCCC2)C(C)c2cccnc2)c1 (centres undefined)
    7%, 1, -3, 5%[15.4 µM], -1.5, 2
CN(C)c1ccc(-c2csc(C(O)c3ccccc3)n2)cc1 (centres undefined)
    nt, -3, ?, nt, 3.2, -29
CC(C)CC(=O)Nc1nnc(S(=O)(=O)N2c3ccccc3CC2C)s1 (centres undefined)
    7%, -2, 6, -2%, 3.1, 1
COc1ccc(CCNC(=O)C2CCC(=O)N2S(=O)(=O)c2ccc(C)cc2)cc1 (centres undefined)
    4%, -2, 6, -24%, -2.9, -6

# Following part.
# Each structure is followed by: gsp antag, D2 potentiator, CtBP-E1A blk, gsp ag, D2 ag, Six1-Eya2 blk
Cc1ccc(S(=O)(=O)CCC(=O)OCc2nnc(-c3ccc([N+](=O)[O-])cc3)o2)cc1
    -13%, -6, -1, ?, 0.6, 0
Cc1ccc(S(=O)(=O)N(Cc2cc3cc4c(cc3[nH]c2=O)OCCO4)CC2CCCO2)cc1 (centres undefined)
    44%[activator], -3, 9, 20%, -1.2, 3
O=C(COc1ccccc1Br)Nc1ccc(S(=O)(=O)N2CCCC2)cc1
    -10%, -2, -9, 5%, -1.5, -1
Cn1cnnc1SCC(=O)Nc1ccc(Cl)c(S(=O)(=O)N2CCOCC2)c1
    6%, -1, 11, 2%, -1.1, -3
Cc1cccc(NC(=O)NC(C)CCc2ccccc2)c1 (centres undefined)
    -7%, -8, 13, ?, 1.0, 10
CCC1(CC)C(=O)C(C)(C)C(=O)OC1c1cccs1 (centres undefined)
    -2%, -7, 4, -33%, -1.3, 7
Nc1ccc2oc(-c3cccc4ccccc34)nc2c1
    13%, 3, 14, 14%, -7.8, 16
O=C(NNC(=O)c1cccs1)c1ccc(Cl)c([N+](=O)[O-])c1
    -4%, -3, 1, -18%, -3.2, 1
CCn1c(SCC(=O)Nc2nccs2)nnc1-c1cccnc1
    -3%, 4, 0, -13%, 3.6, 2
Cc1nn(CC(=O)NCc2ccc(OC(C)C)cc2)c(=O)c2cc(-c3ccccc3)nn12
    10%, -7, 8, 10%, -0.2, 2
CCCCOc1ccc(C(=O)NCC(=O)NC2CCC(C)CC2)cc1 (centres undefined)
    14%, -7, 13, -17%, -4.8, 7
Cc1cc([N+](=O)[O-])ccc1NC(=O)CCC(=O)N1CCCC1
    2%, -1, 10, 7%, -1.2, 7
CCN(CC(=O)Nc1c(F)cccc1F)C(=O)c1ccc(=O)n(C)n1
    6%, -4, 0, -1%, -2.4, 2
Cc1ccc(OCCCCNC2CCCC(C)C2C)c(C)c1 (centres undefined)
    14%, -20, -3, 24%, 2.1, 0
O=C(NCCCN1CCOCC1)C1Nc2ccc(OC(F)(F)F)cc2C2C=CCC12 (centres undefined)
    5%, -12, 4, 12%, -1.9, 3

# Assay outcomes as filed in PubChem.
